Bioassay records (PubChem BioAssay)
HSV augment: HSV replication enhancement; HSV replication augmentation in cells, fold increase; maximum fold increase; AID 1956; 220,000 tested, 0.005% active;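 active = peak rise of 1.5-fold or more in the series; tested in PC3 cells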;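 also: first round at 10 µM; read as green reporter fluorescence; hits show the peak of a series up to 25 µM; 1 = signal of infected wells without compound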
PKD1 kinase inh: PKD1 (human) kinase inhibition. AID 797. Q15139. inhibition, %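 (about 10 µM by stock and volumes)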. 200,000 tested, 0.056% active. PKD1 kinase fluorescence polarization assay;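 active = inhibition of 50% or more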;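 also: controls were vehicle for no effect and a reference inhibitor for full effect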
INS promoter inh: TRM-6 insulin promoter activity inhibition; AID 1273; 130,000 tested, 0.9% active; TRM-6 cells (human fetal islet line), insulin promoter-eGFP reporter, imaging; reporter expression induced with tamoxifen; inhibition, % at 2 µM;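 active = inhibition above the mean plus 3 SD, with well images judged a real hit on visual review, cut at about 60% in these data, passing the limit was not always enough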
GALR2 ag: agonists of human galanin receptor 2 (GALR2); activation, %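 (tested at 5 µM)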; AID 803; GALR2-expressing cells, agonist activation read-out; 140,000 tested, 0.48% active;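 active = above mean plus 3 SD of all compounds, about 5% in these data, not always enough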;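 also: 0% = vehicle buffer wells and 100% = reference agonist at full effect; tested in CHO reporter cells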
Target sequence (O43603 whole entry, looked up): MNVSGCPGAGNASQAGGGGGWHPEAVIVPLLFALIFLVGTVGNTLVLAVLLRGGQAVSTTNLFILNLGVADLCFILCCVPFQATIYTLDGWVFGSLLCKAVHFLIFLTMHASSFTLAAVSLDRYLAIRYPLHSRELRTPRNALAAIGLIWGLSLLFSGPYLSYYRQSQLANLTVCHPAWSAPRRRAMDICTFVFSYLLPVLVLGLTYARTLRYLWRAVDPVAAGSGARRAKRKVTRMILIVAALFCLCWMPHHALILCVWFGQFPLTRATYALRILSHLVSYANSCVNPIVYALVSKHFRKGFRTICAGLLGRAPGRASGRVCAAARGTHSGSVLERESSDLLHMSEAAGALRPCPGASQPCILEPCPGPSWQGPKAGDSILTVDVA
RGS16-Gao: RGS16-Galphao interaction regulator (human); O15492+P09471; bead-based flow cytometry RGS16-Galphao binding, fluorescence; actives lie on both sides; binding response (% of control), % at 10 µM; 220,000 tested, 0.38% active;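 active = below 25% or above 175%, edge rows of some plates excepted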;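 also: Galphao activated by GDP with aluminum fluoride before binding; 100% = wells without compound and 0% = beads without RGS; some results beyond the cut were filed as inactive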
Target sequence (O15492 whole entry, looked up): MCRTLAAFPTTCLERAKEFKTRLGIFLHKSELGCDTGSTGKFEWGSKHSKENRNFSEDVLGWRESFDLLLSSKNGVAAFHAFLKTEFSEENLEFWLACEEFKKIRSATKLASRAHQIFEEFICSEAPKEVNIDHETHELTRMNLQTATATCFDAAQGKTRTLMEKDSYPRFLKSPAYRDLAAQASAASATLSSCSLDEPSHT
Target sequence (P09471 whole entry, looked up): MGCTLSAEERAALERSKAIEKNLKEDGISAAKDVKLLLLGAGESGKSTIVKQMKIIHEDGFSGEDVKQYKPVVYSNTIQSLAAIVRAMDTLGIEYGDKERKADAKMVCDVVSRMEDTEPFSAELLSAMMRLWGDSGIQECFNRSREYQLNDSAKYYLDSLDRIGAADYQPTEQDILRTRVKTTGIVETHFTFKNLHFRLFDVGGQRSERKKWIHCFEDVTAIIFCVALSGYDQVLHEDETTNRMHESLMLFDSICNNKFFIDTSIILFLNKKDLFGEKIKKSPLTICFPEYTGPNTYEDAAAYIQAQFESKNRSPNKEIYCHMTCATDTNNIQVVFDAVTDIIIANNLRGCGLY
INS promoter inh cell count: second read-out of INS promoter inh, no call of its own (marks repeat the call); normalized cell count, %; measured here: cell count, toxicity; reference of the scale not given here;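 cells exposed to compound for 48 h; stained nuclei by imaging scaled within each plate; lower means fewer cells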
HSV augment primary fold: recorded beside HSV augment, whose call it bears; fold increase; compound at 10 µM; measured here: primary screen fold increase 10 uM; tested in PC3 cells;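 GFP signal in the first replicate; 1 = infected wells without compound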
* = called active by the depositor; i = inactive; · = no result given.

Order of results: HSV augment	HSV augment primary fold	PKD1 kinase inh	INS promoter inh	INS promoter inh cell count	GALR2 ag	RGS16-Gao
#1 COc1ccc(C(=O)OCC(=O)c2ccc(C3CCCCC3)cc2)cc1
    i	0.94	-0.2	47.8	115.5	-0.1	102.4
#2 C=CCn1c(SCC(=O)NCCOC)nnc1-c1cc2c(s1)CCC(CC)C2 (stereo not given)
    i	0.96	-1.1	·	·	-0.9	99.8
#3 O=C1C2C3CCCC3=C3CCCC3C2C(=O)N1c1ccccc1 (stereo not given)
    i	1.1	-7.0	·	·	-1.1	95.4
#4 O=S(=O)(Nc1cccc2c1CCCC2)c1cccc(C(F)(F)F)c1
    i	1.06	3.9	-41.4	131.3	1.2	107.2
#5 Cc1ccnc(N2CCN(c3cc(C)c(C#N)c4nc5ccccc5n34)CC2)c1
    i	0.94	-5.2	0.0	119.6	-1.2	·
#6 CC(C)CN(CC(C)C)c1ccc(/C=N/n2cnnc2)cc1[N+](=O)[O-]
    i	0.9	-6.2	-52.9	90.7	·	96.5
#7 COc1cccc(NC(=O)CN(c2cccc(C(F)(F)F)c2)S(C)(=O)=O)c1
    i	0.89	-4.0	·	·	-0.1	98.5
#8 CN(c1ccc(OCC(=O)Nc2nc3ccccc3s2)cc1)S(=O)(=O)c1ccccc1
    i	0.83	-3.9	·	·	-1.4	102.7
#9 O=C(c1cc(-c2ccncc2)nc2ccccc12)N1CCN(c2ccc(N3CCOCC3)nn2)CC1
    ·	·	-15.4	45.5	57.7	-2.1	97.9
#10 CCCCCCc1cc2cc(C(=O)Nc3ccccc3)c(=O)oc2cc1O
    i	1.09	-20.0	0.0	71.2	0.2	104.6
#11 CSc1ccccc1NC(=O)c1ccccc1C
    i	0.95	-0.7	·	·	·	107.1
#12 CCCCn1c(N)c(N(CC)C(=O)CSc2nnnn2-c2cc(C)ccc2C)c(=O)[nH]c1=O
    ·	·	-8.3	-50.0	16.2	·	109.2
#13 CC1=CC(C)(C)N2C(=O)C(=O)c3cc(OC(=O)c4ccco4)cc1c32
    ·	·	-1.4	·	·	·	89.4
#14 COc1ccc(Cl)cc1NS(=O)(=O)c1ccc(S(=O)(=O)N2CCCC2)cc1
    i	1.09	-7.8	·	·	-0.1	104.4
#15 Cc1ccc(C)c(-n2c(C)cc(/C=N/NC(=O)c3c(C)nc4cc(C)ccn34)c2C)c1
    i	0.83	-13.2	31.5	105.8	-0.7	107.7
#16 CCN(C(=O)COC(=O)c1cc(=O)[nH]c2ccccc12)C1CCS(=O)(=O)C1 (stereo not given)
    i	0.82	·	·	·	·	96.8
#17 Cc1snc2sc(C(=O)c3ccc(F)cc3)c(N)c12
    i	0.95	·	·	·	·	95.9
#18 COc1ccccc1NC(=O)c1cc(C(=O)O)ccc1C(=O)O
    i	0.87	-2.5	·	·	-1.2	102.2
#19 O=[N+]([O-])c1ccc(Cl)cc1CNc1ccc(F)c(F)c1
    i	1.04	-8.9	0.0	100.2	0.4	105.4
#20 Cc1csc(SCC(=O)Nc2ncc(Cl)c(C)c2Cl)n1
    i	0.89	-1.3	25.6	30.4	-2.4	100.3

Part of the list above, with bars between the fields.
nr | Compound | HSV augment | HSV augment primary fold | PKD1 kinase inh | INS promoter inh | INS promoter inh cell count | GALR2 ag | RGS16-Gao
7 | COc1cccc(NC(=O)CN(c2cccc(C(F)(F)F)c2)S(C)(=O)=O)c1 | i | 0.89 | -4.0 | · | · | -0.1 | 98.5
8 | CN(c1ccc(OCC(=O)Nc2nc3ccccc3s2)cc1)S(=O)(=O)c1ccccc1 | i | 0.83 | -3.9 | · | · | -1.4 | 102.7
9 | O=C(c1cc(-c2ccncc2)nc2ccccc12)N1CCN(c2ccc(N3CCOCC3)nn2)CC1 | · | · | -15.4 | 45.5 | 57.7 | -2.1 | 97.9
10 | CCCCCCc1cc2cc(C(=O)Nc3ccccc3)c(=O)oc2cc1O | i | 1.09 | -20.0 | 0.0 | 71.2 | 0.2 | 104.6
11 | CSc1ccccc1NC(=O)c1ccccc1C | i | 0.95 | -0.7 | · | · | · | 107.1
12 | CCCCn1c(N)c(N(CC)C(=O)CSc2nnnn2-c2cc(C)ccc2C)c(=O)[nH]c1=O | · | · | -8.3 | -50.0 | 16.2 | · | 109.2

Next section.
Order of results: HSV augment	HSV augment primary fold	PKD1 kinase inh	INS promoter inh	INS promoter inh cell count	GALR2 ag	RGS16-Gao
#21 COc1ccc(/C=C/C(=O)NCc2ccccn2)cc1OC
    i	0.95	-1.8	-14.3	95.0	·	114.0
#22 COc1ccc(NC(=O)CC2Sc3ncnn3C2=O)cc1 (stereo not given)
    i	0.96	-8.3	·	·	-1.7	98.7
#23 Cn1c(=O)c2c(nc(CN3CCN(Cc4ccccc4)CC3)n2Cc2ccc(Cl)cc2)n(C)c1=O
    i	0.79	-10.8	·	·	-0.4	111.4
#24 CC(C)CNS(=O)(=O)c1ccc(OCC(=O)Nc2ccc3c(c2)OCO3)c(Cl)c1
    i	0.77	-1.0	-12.5	132.8	-2.4	103.0
#25 Cc1ccc2oc(=O)n(Cc3ccccc3OC(C)C)c2c1
    i	1.21	1.9	9.1	105.8	-1.0	114.3
#26 COc1ccccc1N1C(=O)C2CCC(c3ccccc3)CC2C1=O (stereo not given)
    i	1.01	-7.4	-65.5	100.0	-1.2	102.5
#27 O=c1c2sccc2n(Cc2cc(=O)n3ccccc3n2)c(=O)n1-c1ccccc1
    i	0.93	-8.3	19.4	134.8	-0.2	102.8
#28 Cc1ccc(NC(=O)c2c(-c3c(F)cccc3Cl)noc2C)cc1F
    i	0.99	2.5	·	·	-0.8	105.8
#29 CCCOc1ccc(N2C(=O)CC(N3CCN(c4ccccc4OC)CC3)C2=O)cc1 (stereo not given)
    i	1.15	-3.8	·	·	-2.0	105.2
#30 OCC(O)/C=N/Nc1nc(N2CCCCC2)nc(N2CCCCC2)n1 (stereo not given)
    i	0.97	-0.2	-33.3	100.6	·	101.7
#31 O=C(c1ccc2c(c1)OCO2)N1CCN(c2ccccc2)CC1
    i	1.05	-3.5	·	·	0.1	107.3
#32 CC(=O)c1cc2c(cc1NC(=O)c1ccco1)OCCO2
    i	1	-4.5	54.5	66.9	·	95.5
#33 Cc1[nH]c2ccccc2c1SCc1nnc(SCc2ccccc2)n1C
    i	0.97	·	·	·	·	102.5
#34 CCN(CC)C(=O)C1CCCN(Cc2ccccc2)C1 (stereo not given)
    i	1.12	-10.1	-17.9	98.9	-0.5	105.6
#35 CCNC(=O)NC(=O)COC(=O)CNC(=O)COc1ccccc1
    i	0.97	-2.4	·	·	-0.4	87.6
#36 N=C1C(c2ccccc2)=C(O)CN1c1cccc(S(=O)(=O)NCc2ccco2)c1
    i	1.11	·	·	·	·	101.2
#37 CC(=O)Nc1ccc(-c2nnc(SCC(=O)c3ccc4c(c3)Cc3ccccc3-4)n2C)cc1
    i	0.9	14.5	-11.1	121.0	4.9*	97.4
#38 COc1cccc(/C=N/Nc2cc(Cl)nc(C)n2)c1O
    i	1.12	3.5	·	·	·	97.9
#39 COCCCn1c(=N)c(C(=O)NC2CCCCC2)cc2c(=O)n3ccccc3nc21
    i	0.89	-0.7	-28.6	129.0	16.4*	96.3
#40 CC(C)COc1ccc(C(=O)Nc2sc3c(c2C(=O)O)CC(C)(C)OC3)cc1
    i	0.9	0.1	·	·	·	102.2
#41 O=C(C1CC1)N(CCN(C(=O)C1CC1)c1ccccc1)c1ccccc1
    i	0.99	-6.1	43.6	56.2	-0.6	101.3
#42 CC(=O)Oc1ccc(N2C(=O)C3C4C=CC(CO)(O4)C3C2=O)cc1 (stereo not given)
    i	0.96	7.1	4.2	107.2	-0.7	73.3
#43 O=C(CCc1ccc(S(=O)(=O)N2CCOCC2)cc1)N1CCc2ccccc2C1
    i	1	-2.0	6.7	79.9	·	38.0
#44 CCCCN=C1CC(C)(C)CC(=O)/C1=C(/O)CCC
    i	1.26	·	·	·	·	98.3
#45 COc1cccc(N=c2oc3ccc(OC)cc3cc2-c2nc3ccccc3[nH]2)c1
    i	0.6	4.4	50.0	102.3	0.7	100.3
#46 CCOC(=O)c1cc(NC(=O)CSCCO)ccc1Cl
    i	0.997	-11.2	-5.6	102.1	-2.3	100.9
#47 CNC1(C(N)=O)CCNCC1
    i	0.9	·	·	·	·	105.6
#48 C/C(=N\NC(=O)c1cc2c(s1)CCC(C)C2)c1cccnc1 (stereo not given)
    i	0.89	-9.6	13.3	126.3	-0.8	86.8
#49 Cc1ccc(S(=O)(=O)NC(CC(C)C)C(=O)NCc2ccco2)cc1 (stereo not given)
    i	1.1	3.6	-50.0	54.5	4.9	103.5
#50 CCn1ccnc1CN1CCN(CC(C)C)C(CCO)C1 (stereo not given)
    i	1.25	7.2	·	·	·	103.9
#51 O=C(CSc1ccc2nnc(-c3ccncc3)n2n1)Nc1nccs1
    i	0.95	-0.1	18.2	138.5	·	89.5
#52 Clc1cccc(Cl)c1Cn1cnc(=NCc2ccco2)c2[nH]cnc21
    i	0.78	-4.3	·	·	-1.3	103.4
#53 N#CC1=C(N)SC(N)=C(C#N)C1C1CC=CCC1 (stereo not given)
    i	0.95	-6.7	40.0	159.9	0.5	93.5
#54 Cn1cccc1Cc1nnc(SCC(=O)Nc2nc3ccccc3s2)n1CCc1ccccc1
    i	0.62	1.1	·	·	1.1	101.6
#55 COC(=O)c1cc2c(-c3ccccc3)c(C)c3ccccn3c-2c1C(=O)OC
    i	1.16	3.8	2.9	120.3	-2.3	99.2
#56 COCCCC1CCN(Cc2cn[nH]c2-c2cc(OC)c(OC)c(OC)c2)CC1
    i	1.1	10.3	·	·	·	99.8
#57 COc1ccccc1-n1nnnc1SCC(=O)Nc1cc(C)on1
    i	0.81	-5.0	13.5	113.2	-2.6	52.5
#58 Cc1cc([N+](=O)[O-])ccc1NCc1ccccc1[N+](=O)[O-]
    i	0.96	11.9	-78.6	127.4	·	106.2
#59 COC(CNC(=O)c1ccc2nc(-c3ccccc3)c(-c3ccccc3)nc2c1)OC
    i	0.88	-4.6	66.7	143.4	·	104.5
#60 COc1ccc(CCC(=O)OCC(=O)Nc2ccc(C)c(S(=O)(=O)N(C)C)c2)cc1
    i	0.97	-5.7	46.9	118.2	-1.4	69.9
#61 Cc1ccc(S(=O)(=O)c2c(N)n(/N=C/c3ccco3)c3nc4ccccc4nc23)cc1
    i	1.08	-3.4	18.2	96.4	-0.5	97.1
#62 O=C(CC(c1ccccc1)c1ccccc1)NCC1CCCO1 (stereo not given)
    i	0.94	-7.6	·	·	-2.4	99.2
#63 O=C(c1ccc2c(c1)OCCO2)C1CCN(C(=O)c2ccc(F)c(F)c2)CC1
    i	1.45	-11.9	16.7	145.3	-0.1	111.1
#64 COc1cc(/C=N/NC(=O)C(=O)NCC2CCCO2)cc(Cl)c1O (stereo not given)
    i	1.05	·	·	·	·	100.3
#65 C/C(=N/NC(=O)CNC(=O)c1ccncc1)c1ccc(Cl)cc1
    i	0.96	·	·	·	·	103.3
#66 CCc1nnc(NC(=O)[C@@H](NC(=O)c2ccc(OC)cc2)C(C)C)s1
    i	1	-4.5	·	·	·	97.9
#67 Cc1cc(N2CCN(S(=O)(=O)Cc3ccccc3)CC2)n2ncnc2n1
    i	1.12	-1.8	9.1	147.9	-0.4	91.9
#68 COC(=O)c1ccc(Sc2ccc(C)cc2)c(N)c1
    i	0.96	11.7	·	·	0.4	94.1
#69 Cc1onc(-c2ccccc2Cl)c1C(=O)NC1CCS(=O)(=O)C1 (stereo not given)
    i	1.08	-20.2	·	·	-0.9	102.0
#70 Cc1ccc(-n2c(SCC(=O)Nc3cccc(S(=O)(=O)NC4=NCCCCC4)c3)nc3ccccc3c2=O)cc1
    i	0.98	1.6	·	·	0.7	103.6
#71 CN(C)C(=O)c1cn(N(C)c2ncc(C(F)(F)F)cc2Cl)c(=O)c2ccccc12
    i	1.04	4.1	6.7	110.2	-2.8	99.0
#72 CCCCCn1c(=S)[nH]c2cc(C(=O)N3CCCC3)ccc2c1=O
    i	0.86	5.3	·	·	·	101.4
